GIV Gai3 FP: GIV-Galpha-i interaction inhibition; Galpha-i3/FITC-GIV peptide fluorescence polarization, 90 min; hits give low values; scaled: aluminum fluoride 0%, vehicle 100%; percent of control (FP), % (no concentration beside the values); actives 0.42% (n = 210,000); P08753;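 active means replicate mean at 85% of control or lower, very high polarization wells dropped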;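 further: wells of about 15 µL received 100 nL stock; the first replicate is given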
Target sequence (P08753 whole entry, looked up): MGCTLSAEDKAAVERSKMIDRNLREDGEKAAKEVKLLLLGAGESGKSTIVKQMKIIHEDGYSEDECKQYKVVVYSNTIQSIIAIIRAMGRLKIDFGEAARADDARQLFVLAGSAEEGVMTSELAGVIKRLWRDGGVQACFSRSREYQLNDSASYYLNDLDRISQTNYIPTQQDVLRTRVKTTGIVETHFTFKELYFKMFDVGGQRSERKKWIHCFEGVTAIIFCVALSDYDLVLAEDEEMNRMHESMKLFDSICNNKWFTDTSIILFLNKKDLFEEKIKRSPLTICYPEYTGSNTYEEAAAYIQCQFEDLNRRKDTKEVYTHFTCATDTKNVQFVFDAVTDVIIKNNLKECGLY
HCMV NEC inh: disrupts HCMV UL50-UL53 complex binding | HTRF UL50-UL53 interaction, normalized percent inhibition | AID 1918969 | inhibition, % (concentration not given with the values) | actives 0.15% (n = 190,000);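 active means both replicates at 50% or more, plus weaker picks with an unusually low signal ratio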;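 further: stock transfer was 100 nL into about 20 µL; 0% = negative control wells and 100% = wells with untagged competitor protein; inactives centre near -12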
Sa growth inh: inhibitors of Staphylococcus aureus growth at 42 °C. S. aureus RN4220 growth, OD600, 20 h; hits give low values. relative growth, % (concentration not given with the values). actives 0.53% (n = 170,000);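 active means growth at 42 °C up to 50% and 20 or more points under that at 30 °C, or under 10% at both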;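 further: 300 nL library stock went into each well; scaled to the means of positive and negative controls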
Sa growth inh second temp: second read-out of Sa growth inh, no call of its own (marks repeat the call); relative growth, %; measured here: growth at 30 °C;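 optical density after 20 h as mean of two plates; 100% = untreated growth and lower means inhibition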
* = called active by the depositor; . = not tested or not shown; & = joins results of further samples.

SMILES | GIV Gai3 FP | HCMV NEC inh | Sa growth inh | Sa growth inh second temp
CCc1ccc2[nH]c(=O)c(CN(CCCN3CCOCC3)C(=S)NC)cc2c1 | 102 | -13 | 104 | 87
O=C(CC12CC3CC(CC(C3)C1)C2)Nc1ccc2c(c1)COC2=O | 101 | . | 97 | 92
Cc1sc2ncnc(NCCC3=CCCCC3)c2c1S(=O)(=O)N1CCCCC1 | 108 | -3 | . | .
Cn1c2c(c(=O)n(C)c1=O)C(c1cccc(Br)c1)CC(=O)N2 (stereo not given) | 99 | -30 | . | .
CNC(=O)NC1CCCCc2sccc21 (stereo not given) | 100 | . | 96 | 85
CCOc1ccccc1CNC(=O)c1cnc2sc(N3CCCC3)nn2c1=O | 109 | . | 99 | 97
S=C(SCc1cc(Cl)cc2c1OCOC2)N1CCSCC1 | 97 | -14 | 95 | 93
O=C(NCC1CCCO1)c1cc(NS(=O)(=O)c2cccs2)cc(NS(=O)(=O)c2cccs2)c1 (stereo not given) | . | -9 | 92 | 88
O=C(Cc1nnc(SCc2ccccc2)n1-c1ccccc1)Nc1ccccc1 | 102 | -22 | . | .
Cc1cccc(S(=O)(=O)Nc2cccc(-c3ccc(N4CCCCC4)nn3)c2)c1 | 105 | . | 116 | 106
CC(C)(C)OC(=O)CSc1nc2c(-c3ccccc3)c[nH]c2c(=O)[nH]1 | 110 | -37 | . | .
COc1ccc(-c2c(C)c3ccc(O)c(CN4CCCC4)c3oc2=O)cc1 | 109 | . | 94 | 93
CN1c2ccccc2Sc2cc(C=C(C#N)C#N)ccc21 | 103 | -8 | 94 | 88
CC(C)Cn1c(CCCO)nc2ccccc21 | . | -19 | 105 | 85
Cc1ccc(C)n1-c1nnc(N2CCC(C(=O)NC(C)c3ccc4c(c3)OCCO4)CC2)s1 (stereo not given) | 102 | -14 | 89 | 59
COC(=O)c1ccc(Cl)c(NC(=O)C2CCN(S(=O)(=O)Cc3ccccc3)CC2)c1 | 108 | -3 | 96 | 92
CC(=O)Nc1ccc(N=Cc2nc(-c3ccccc3Br)oc2O)cc1 | 94 | -20 | . | .
COc1cc(C(=O)NCc2nc(-c3ccc(Cl)cc3)no2)cc(OC)c1OC | 103 | -6 | 104 | 88
Cn1c(=O)n(C)c2cc(N3CCCC3)c(NC(=O)c3sc4ccccc4c3Cl)cc21 | 108 | -7 | . | .
CC1=C(C(=O)Nc2ccccc2)C(c2ccccc2)C2=C(N1)c1ccccc1C2=O (stereo not given) | 99 | -64 | 90 | 90
CC1=NN(c2ccc(C(=O)O)cc2)C(=O)C1 | . | -6 | 81 | 84
CCCn1c(=O)c(C#N)cn(C2CC2)c1=O | 98 | -20 | 88 | 87
CCOC(=O)Cc1csc(N2CCOCC2)n1 | . | -10 | 85 | 92
Cc1ccc(C)n1-c1nnc(N2CCC(C(=O)NCc3ccccc3Cl)CC2)s1 | 102 | -19 | 103 | 88
CCOc1cc(C#N)c(NC(=O)c2ccc(OC)c(S(=O)(=O)N3CCCCC3)c2)cc1OCC | 105 | 10 | 83 | 93
Cc1c(C)[n+]([O-])c2ccc3c(non3O)c12 | 94 | -98 | 1.9* | 0.6*
CCc1ccc(N(C)S(=O)(=O)c2ccc3[nH]cc(C(=O)NCC4CCCO4)c(=O)c3c2)cc1 (stereo not given) | 102 | . | 97 | 80
Cc1ccc(C2CCN(C(=O)c3cnn(-c4ccccc4Cl)c3C3CCN(C(=O)OC(C)(C)C)CC3)C2)cc1 (stereo not given) | 99 | . | 76 | 93
CCOc1ccccc1NC(=O)N1CCCN(c2ncccc2C#N)CC1 | 106 | -17 | 84 | 90
Cc1nc(SCc2ccccc2)nc2c1CCC2 | 102 | -6 | . | .

Entries of single compounds as entered above. Values in the order: GIV Gai3 FP | HCMV NEC inh | Sa growth inh | Sa growth inh second temp
`CCOC(=O)Cc1csc(N2CCOCC2)n1` is entered as . | -10 | 85 | 92
`Cc1nc(SCc2ccccc2)nc2c1CCC2` is entered as 102 | -6 | . | .
`Cc1ccc(C)n1-c1nnc(N2CCC(C(=O)NCc3ccccc3Cl)CC2)s1` is entered as 102 | -19 | 103 | 88
`COc1cc(C(=O)NCc2nc(-c3ccc(Cl)cc3)no2)cc(OC)c1OC` is entered as 103 | -6 | 104 | 88
`COC(=O)c1ccc(Cl)c(NC(=O)C2CCN(S(=O)(=O)Cc3ccccc3)CC2)c1` is entered as 108 | -3 | 96 | 92

Continuation.
SMILES | GIV Gai3 FP | HCMV NEC inh | Sa growth inh | Sa growth inh second temp
CC(C)NC(=O)CCCc1nnc2n3nc(-c4ccccc4)nc3c3ccccc3n12 | 103 | -4 | 92 | 86
COC(=O)c1ccccc1NC(=O)C1CCN(S(=O)(=O)c2ccc(OC)c(OC)c2)CC1 | 106 | -8 | 96 | 84
Nc1cc(=O)[nH]c(S/C=C/c2ccccc2)n1 | . | -22 | 100 | 93
COC(=O)c1ccc(C)c(NC(=O)CC2CCCC2)c1 | . | -11 | 95 | 93
CCCc1nc2ccccc2n1CC(O)COc1c(C)cccc1C (stereo not given) | 108 | -19 | . | .
COc1ccc(C(=O)N=C(N)COc2ccccc2Cl)cc1 | 101 | -8 | 103 | 94
Cc1ccc(NC(=O)Cn2nnc(-c3ccccc3)n2)cc1 | . | -33 | 97 | 86
Cc1ccc(NC(=O)CSc2nc(=O)n(Cc3cccnc3)c3c2CCC3)cc1F | 105 | . | 98 | 70
Cc1[nH]c2ccccc2c1SCCN | 105 | -20 | 93 | 65
Cc1ccc(N(CC(=O)Nc2cccc(C)c2)S(=O)(=O)c2c(C)n[nH]c2C)cc1 | 103 | -13 | 103 | 89
Nc1nnnn1CC(=O)OCC(=O)Nc1ccccc1 | . | -6 | 87 | 86
O=C1C(=O)N(C2CCN(C(=O)c3cccnc3)CC2)CCN1Cc1ccc(F)cc1 | 101 | -26 | . | .
Cc1ccc(-c2noc(=O)n2CC(=O)Nc2ccc(S(=O)(=O)N3CCCC3)cc2)cc1 | 100 | 13 | 102 | 68
Cc1cccc(-c2nccc(N3CCC(C(=O)NC4CC4)CC3)n2)c1 | 106 | -14 | . | .
CCOC(=O)c1cc(C)sc1/N=C/C1C(=O)CCCC1=O | 101 | . | 132 | 79
COc1ccccc1CNC(=O)c1cccs1 | . | -2 | 88 | 96
COC(=O)c1sccc1S(=O)(=O)N1CCc2ccccc2C1 | 106 | 0 | . | .
O=c1sc2ccccc2n1Cc1ccccc1 | . | 4 | 94 | 106
COc1ccc(CNC(=O)CN2C(=O)COc3ccc(S(=O)(=O)NC4CCCC4)cc32)cc1 | 101 | . | 103 | 80
c1ccc2c(c1)c1ccccc1n2CN1CCOCC1 | 101 | -22 | 93 | 89
NC(=O)c1csc(-c2ccc(F)cc2F)n1 | 106 | 6 | 107 | 95
CCC12CN3CC(C)(CN(C1)C3c1ccccc1C)C2=O (stereo not given) | 98 | -32 | 89 | 88
Cc1ccc(CN2C(c3ccc(F)c(F)c3)Nc3ccccc3S2(=O)=O)cc1 (stereo not given) | 94 | 4 | . | .
COC(=O)C1=CN(c2ccc(F)cc2)C=C(C(=O)OC)C1c1cccc(O)c1 | 102 | . | 87 | 84
COc1cccc(N2C(=S)NC3c4ccccc4OC2(C)C3C)c1 (stereo not given) | 99 | . | 66 | 92
NC(=S)N/N=C(/C(=O)c1ccccn1)c1ccccn1 | . | -34 | 74 | 83
Cc1cc(N2CCN(C)CC2)ccc1NC(=O)c1ccc(S(=O)(=O)Nc2ccccc2F)cc1 | . | -12 | 92 | 81
Cc1nn(Cc2cccc(C(=O)Nc3nc4ccc(S(C)(=O)=O)cc4s3)c2)c(C)c1Cl | 106 | -14 | 109 | 75
CCCc1ccc(C(=O)C(C)OC(=O)C2=NNC(=O)CC2)cc1 (stereo not given) | . | -17 | 84 | 89
Cc1nn(-c2ccccc2)c(C)c1C1NCCNC1=O (stereo not given) | . | 20 | 111 | 107
CCOC(=O)/C=C1\CCC=C1N1CCOCC1 | . | -25 | 83 | 88
COc1ccc(C2CCCCCN2)cc1 (stereo not given) | . | -15 | 89 | 96
CCCn1cnc2c1c(=O)[nH]c(=O)n2C | . | 3 | 109 | 90
COc1cc(C(=O)NCc2nc3cccnc3n2Cc2ccc(C)cc2)cc(OC)c1OC | 118 | . | 126 | 86
CCOc1ccc(NC(=O)CSc2nc3c(oc4ccccc43)c(=O)n2-c2ccccc2C)cc1 | 102 | -36 | 87 | 97
COCCCNC(=O)CCCN1C(=O)COc2ccc(C)cc21 | 102 | -21 | . | .
Cc1ccc(C(=O)NCCc2nnc3ccc(SCC(=O)NC4CCCCC4)nn23)cc1 | 95 | . | 93 | 82
CC(C)c1ccc(-c2csc3ncn(N)c(=O)c23)cc1 | . | 7 | 94 | 78
CC(=O)NC(=O)/C(C#N)=C/N1CCN(c2ccccc2)CC1 | 105 | -6 | 98 | 97
Cc1cc(C(=O)COC(=O)c2cc(=O)[nH]c3ccccc23)c(C)n1C | . | 24 | 103 | 89
COc1ccc(-c2nc(CSc3nc4ccccc4n4c(C(C)C)nnc34)c(C)o2)cc1 | 104 | -31 | . | .
COc1ccccc1CNc1ccc2c(c1)ncn2-c1ccccc1OC | . | -19 | 111 | 54
Cc1cccc(Nc2c(C(=O)N3CCOCC3)cnc3ccccc23)c1 | 101 | -8 | . | .
CCOc1ccccc1NC(=O)c1cccc2c1C(=O)N(C1CCCCC1)C2 | 106 | -22 | 97 | 85
Cc1nccc(-c2c(-c3ccccc3)noc2C)n1 | 105 | 7 | 88 | 89
COc1cc2c(cc1OC)CN(CC(N)=O)CC2 | . | -7 | 93 | 95
Cc1cccc(NC(=O)CC2CCN(C(=O)c3nnc(C(=O)Nc4ccc(F)cc4)s3)CC2)c1C | 104 | -14 | . | .
CC(C)(C)C(=O)N(CCc1ccccc1)Cc1nc2ccccc2c(=O)[nH]1 | 103 | -26 | 107 | 96
COc1ccc(-c2cc(-c3ccc(F)cc3)nc3c2COc2ccc(F)cc2-3)cc1 | 109 | -19 | 107 | 91
COc1ccccc1C(=O)N1CCC(c2noc(-c3ccc(S(=O)(=O)N4CCCC4)cc3)n2)CC1 | 101&102 | -33&-7 | 99 | 84
Cc1c(NC(=O)CN2CCC(C)CC2)c(=O)n(-c2ccccc2)n1C | . | -12 | 94 | 88
Cc1ccc2nc3c(c(N)c2c1)CCN3c1ccccc1 | 111 | 12 | 102 | 94
CCOC(=O)c1cnc2ccccc2c1NCCCN1CCOCC1 | 106 | 10 | 90 | 95
O=C(CCCN1C(=O)NC2(CCCC2)C1=O)Nc1ccc2c(c1)OCCCO2 | . | -24 | 96 | 80
CCc1ccc(C2CC(=O)N3CN(c4ccccc4)CSC3=C2C#N)cc1 (stereo not given) | 101 | . | 89 | 84
O=C(c1cccs1)N1CCCc2cc(NS(=O)(=O)c3ccc(Br)cc3)ccc21 | 100 | . | 71 | 48
Cc1c(S(=O)(=O)c2ccc(Cl)cc2)csc1C(=O)N(c1ccccc1)S(C)=O (stereo not given) | 101 | -16 | 101 | 94
O=C(NCCc1ccccc1)c1ccc2c(c1)N(Cc1ccc(F)cc1)C(=O)c1ccccc1S2(=O)=O | 104 | 23 | 115 | 100
Cc1cc(C)c(C(=O)N2CCCC(C(=O)NCCN(C)C)C2)[nH]1 (stereo not given) | 100 | -12 | . | .
CCOc1ccc(CCNC(=O)CN2C(=O)c3cccnc3Oc3ccc(Cl)cc32)cc1 | 108 | . | 131 | 84

Quoted at random: 4 entries already listed
SMILES | GIV Gai3 FP | HCMV NEC inh | Sa growth inh | Sa growth inh second temp
Cc1c(NC(=O)CN2CCC(C)CC2)c(=O)n(-c2ccccc2)n1C | . | -12 | 94 | 88
COc1cc2c(cc1OC)CN(CC(N)=O)CC2 | . | -7 | 93 | 95
Cc1cccc(NC(=O)CC2CCN(C(=O)c3nnc(C(=O)Nc4ccc(F)cc4)s3)CC2)c1C | 104 | -14 | . | .
CCc1ccc(C2CC(=O)N3CN(c4ccccc4)CSC3=C2C#N)cc1 (stereo not given) | 101 | . | 89 | 84

(continued)
SMILES | GIV Gai3 FP | HCMV NEC inh | Sa growth inh | Sa growth inh second temp
Cc1ccc(-n2c(-c3nn(C)cc3Cl)n[nH]c2=S)cc1 | 99 | . | 94 | 84
Fc1ccc(-c2ccc(NCc3ccccc3)nn2)cc1 | 101 | -6 | 117 | 97
Cc1c(C(=O)NC2CCCC2)oc2ccc(S(=O)(=O)N3CCC(C)CC3)cc12 | 103 | -10 | . | .
CN1CCN(c2ncc3c(n2)CCN(Cc2ccc(Br)s2)C3)CC1 | 104 | . | 102 | 95
CCc1ccccc1NC(=O)Cn1ncc2c(=O)oc3ccccc3c21 | 107 | -14 | 102 | 91
CC(NC(=O)CSc1nnc2c3ccccc3n(C)c2n1)c1ccccc1 (stereo not given) | 104 | 2 | 87 | 92
CC1Oc2ccccc2N(CC(=O)NCC2CCCO2)C1=O (stereo not given) | 104 | -5 | 118 | 96
CN(c1ccccc1)S(=O)(=O)c1ccc(C(=O)Nc2nccs2)cc1 | . | -25 | 81 | 94
CC(C)OCCCNC(=O)C1c2c(n(C)c3ccccc23)SCC(=O)N1CCc1ccsc1 (stereo not given) | 102 | 9 | . | .
Cc1cc(C)c(C#N)c(SCC(=O)Nc2c(Cl)cccc2Cl)n1 | 102 | 19 | . | .
Cc1coc2cc3oc(=O)c4c(c3cc12)CCCCC4 | 108 | -12 | 80 | 85

Outcome played no part in choosing rows. Share with any hit: about 0.83%.
